From PubChem BioAssay
USP2a inh = blocks human ubiquitin-specific protease USP2a; 330,000 compounds, 0.01% hits; Potency, µM (highest dose often 38.3 µM), for the others: at the highest dose activity change, negative = inhibition, actives largely listed as inhibitors; USP2 core, Ub-CHOP2 coupled fluorogenic reporter, 485/531; AID 463254;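 further: potency means the concentration at half of the fitted maximal effect; plate controls were DMSO wells for no effect and full inhibition by NEM control for full effect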
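Cell-free coupled assay: 10nM USP2 core preincubated 30min RT with compound in Tris-HCl pH 8.0/CaCl2/CHAPS buffer, then 25nM Ub-CHOP2 and 25nM reporter substrate; fluorescence (Ex 485/Em 531) read after 60min RT, normalized to NEM inhibition, concentration-response curves fitted.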
Giardia kill = Giardia lamblia killing; Giardia lamblia trophozoite viability; activity change, % at 7.66 µM, hits read low; 340,000 compounds, 0.15% hits; AID 540267; in the data active means activity change below about -80%; inconclusive means between about -30% and that limit;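 further: parasites exposed to compound for two days anaerobically before the ATP read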
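Trophozoites 100 cells/well + cpd; 48 hrs, 37 deg C, anaerobic. ATPLite 1-Step added, 15-30 min RT, luminescence read (ATP-based viability).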
uPA surface inh = cell surface uPA generation inhibition. Potency, µM (series often up to 38.3 µM), without a hit: top-dose activity change, negative = inhibition, usual class: inhibitors. cell surface uPA generation assay, qHTS. 330,000 compounds, 0.31% hits. AID 540303; active means well fitted inhibition curve with a large enough effect; inconclusive means small, poorly fitted or top-dose-only effect; inactive means no such curve, though single readings can be large or run the other way; tested in mouse RAW 264.7 cells; further: potency means the concentration at half of the fitted maximal effect; nearly all actives have a fitted effect of over 55% in size
GALK inh = inhibitors of human galactokinase. 270,000 compounds, 0.007% hits. P51570. Potency, µM (series often up to 57.5 µM), without a hit: at the highest dose activity change, negative = inhibition, most hits filed as inhibitors. Purified GALK, Kinase-Glo residual ATP luminescence. AID 1868; further: potency means the concentration at half of the fitted maximal effect
Target sequence (P51570 whole entry, looked up): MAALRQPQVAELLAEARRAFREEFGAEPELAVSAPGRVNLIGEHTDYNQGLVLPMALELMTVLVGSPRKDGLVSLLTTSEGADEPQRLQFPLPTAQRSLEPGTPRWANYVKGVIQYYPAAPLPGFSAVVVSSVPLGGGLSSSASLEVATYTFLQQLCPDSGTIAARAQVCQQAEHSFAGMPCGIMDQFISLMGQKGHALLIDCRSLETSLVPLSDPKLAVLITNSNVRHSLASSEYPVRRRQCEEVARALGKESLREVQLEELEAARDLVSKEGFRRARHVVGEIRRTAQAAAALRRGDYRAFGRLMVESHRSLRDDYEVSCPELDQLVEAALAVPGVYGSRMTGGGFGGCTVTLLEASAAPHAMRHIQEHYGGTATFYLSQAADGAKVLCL
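ATP-depletion format; final 35 uM ATP, 100 uM D-galactose, 5 nM enzyme; pH 8.0 HEPES/Mg2+ buffer; 60 min RT; luminescence read 10 min after detection reagent.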
Eya2 inh = inhibitors of human Eya2 phosphatase activity | O00167 | recombinant Eya2, OMFP fluorescence dephosphorylation (OMFP is methylfluorescein phosphate) | Potency, µM (series often up to 76.9 µM), without a hit: top-dose activity, negative = inhibition, hits mostly inhibitors | 330,000 compounds, 0.006% hits; further: potency means the concentration at half of the fitted maximal effect
Target sequence (O00167 whole entry, looked up): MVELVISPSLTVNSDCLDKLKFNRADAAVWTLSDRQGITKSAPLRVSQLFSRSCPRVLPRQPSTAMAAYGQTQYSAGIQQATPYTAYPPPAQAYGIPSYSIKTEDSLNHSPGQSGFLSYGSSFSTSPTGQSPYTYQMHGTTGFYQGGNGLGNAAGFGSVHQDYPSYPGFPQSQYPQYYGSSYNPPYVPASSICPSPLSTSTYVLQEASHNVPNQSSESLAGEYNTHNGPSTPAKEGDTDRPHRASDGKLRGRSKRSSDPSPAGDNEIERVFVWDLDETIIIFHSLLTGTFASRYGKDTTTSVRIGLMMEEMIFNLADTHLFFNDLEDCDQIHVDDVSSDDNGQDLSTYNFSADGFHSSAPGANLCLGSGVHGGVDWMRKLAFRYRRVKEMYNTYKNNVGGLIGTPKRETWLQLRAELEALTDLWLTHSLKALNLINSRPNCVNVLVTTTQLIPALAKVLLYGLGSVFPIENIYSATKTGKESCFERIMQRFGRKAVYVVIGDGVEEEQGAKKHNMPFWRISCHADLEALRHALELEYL
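Eya2 protein (added as 0.2 uM solution) was preincubated with compound for 10 min at ambient temperature in 50 mM HEPES pH 7.5, 50 mM NaCl, 5 uM MgCl2, 0.05% BSA, 1 mM DTT. OMFP (added at 50 uM) then reacted 10 min; fluorescence read at 485/525 nm.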
KCNH2 3.1 block = blocks the human KCNH2 3.1 channel isoform | U2OS KCNH2 3.1, thallium flux FluxOr; stronger effect = lower value | activity change, % (tested at about 1.8 µM) | 340,000 compounds, 0.95% hits;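 active means maximum activity change below -70%; inconclusive means maximum activity change from -70% to -50%; inactive means maximum activity change above -50%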;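 further: thallium influx rate constant from kinetic fluorescence after stimulation buffer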
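Thallium flux via FluxOr fluorescence (Red40 quencher, 45 min loading) in U2OS cells virally expressing the KCNH2 3.1 isoform (1.77 x 10^8 /mL virus, overnight at 37 C). Rate constants from 2-min kinetic reads post-stimulation, normalised to positive and negative controls.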
BCR signal inh = blocks chronic active B-cell receptor signaling. Potency, µM (series often up to 46.1 µM), for the others: at the highest dose ratio change, negative = lower green/red ratio, hits mostly inhibitors. 340,000 compounds, 0.05% hits. ABC-DLBCL IkBa-CBG/CBR reporter, luminescence ratio, 4 h; active means well fitted inhibition curve with a large enough effect in the signal ratio, with a control signal flat, not every such curve was filed as active; inconclusive means small, poorly fitted or top-dose-only effect, or effect the other way, or a change in a side signal; the % refers to the signal ratio;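 further: potency means the concentration at half of the fitted maximal effect; plate controls were basal doxycycline-induced cells for no effect and cells given 10 µM MG132 for full effect; MG132 reads +100%, hits lower the ratio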
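Compounds up to 46 uM were incubated four hours with TMD8 cells whose green CBG68 luciferase is fused to IkappaBalpha; red CBR luminescence normalised the signal, and concentration-effect curves were fitted to fusion, red and ratio data.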
B2AR arrestin = beta2AR (human) beta-arrestin recruitment activity; P07550; beta-arrestin recruitment to beta2AR, cell-based reporter; Potency, µM (titrated, usually from 46.1 µM), inactives show at the top dose activation, hits mostly activators; 330,000 compounds, 0.02% hits; AID 492947;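 further: potency means the concentration at half of the fitted maximal effect; 0% = DMSO controls and full agonism = EC100 isoproterenol or metaproterenol; nearly all actives have a fitted effect of over 65% in size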
Coupling enz = counter-screen for Giardia aldolase inhibitors: coupling enzyme system | AID 2472 | activity change, negative = inhibition, % at 58.2 µM, hits read low | coupling enzyme system counterscreen, AmpLite Red fluorescence | 290,000 compounds, 0.67% hits; in the data active means activity change below about -30%
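Fluorescence at 525 nm excitation and 598 nm emission measured inhibition of the coupled detection system without aldolase. Compounds (at 57.5 uM final) were preincubated 10 min at room temperature with coupling enzyme reagent before a 20 min substrate/AmpLite Red step.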
KCNH2 WT inh = KCNH2 (human, wildtype) channel inhibition; Q12809; U2OS, BacMam KCNH2, thallium flux FluxOr; stronger effect = lower value; activity change, % at 1.84 µM; 340,000 compounds, 0.37% hits; AID 720551;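 active means maximum activity change below -70%; inconclusive means maximum activity change between -70% and -50%; inactive means maximum activity change above -50%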
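U2OS cells were transduced with wild-type KCNH2 virus (2.03 x 10^8 / mL) for 4 h at room temperature, then cultured overnight at 37 C. Thallium flux was read with FluxOr dye. Rate constants were normalized to DMSO controls.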
* = called active by the depositor; ? = inconclusive; · = not tested or not shown; [ ] = dose if it differs, or a comment. Unless noted, the call rests on the fitted dose curve; in most records, active means well fitted curve in the direction sought with a large enough effect; inconclusive means small, poorly fitted or top-dose-only effect, or another doubt; inactive means no such curve, though single readings can be large; an effect the other way counts as inactive or inconclusive. Unless noted, on the % scale 0 is the no-effect control and ±100 the full control effect. Not all compounds are listed (hit frequency here may not be typical).

The line under a structure holds: USP2a inh | Giardia kill | uPA surface inh | GALK inh | Eya2 inh | KCNH2 3.1 block | BCR signal inh | B2AR arrestin | Coupling enz | KCNH2 WT inh
C=CCN(c1ccc(C(=O)Nc2ccc(NC(C)=O)cc2)cc1)S(C)(=O)=O
→ -1% | -5 | 0% | 1% | 7% | -40 | -17% | -0.1% | 1 | -3
Cc1cnn(C(=S)NCCc2ccccc2)c1
→ 2% | 17 | -3% | 1% | 3% | ? | 15% | -0.2% | 0 | 0
Cc1ccc2oc(=O)c3cnn(CC(=O)N(CCN(C)C)Cc4ccco4)c3c2c1
→ 1% | 34[activator] | -6% | 2% | 8% | -11 | ? | 0.0% | 4 | 2
CSCCC(NS(=O)(=O)c1cccc(C(F)(F)F)c1)C(=O)N(C)Cc1ccc2c(c1)OCCO2 (stereo not given)
→ 1% | 25 | 10% | -7% | -1% | 7 | 2% | -0.3% | · | 4
Cc1cccc(C(=O)NC(CC(=O)O)c2ccc(OC3CCCC3)cc2)c1[N+](=O)[O-] (stereo not given)
→ 0% | 0 | 0% | -2% | 2% | 24 | 1% | 0.1% | 17 | 1
CCOC(=O)c1cnc(-n2nc(C)cc2C)nc1NNc1cc(-c2ccccc2)nc(C)n1
→ 4% | · | · | 2% | -5% | · | 0% | -0.2% | 2 | ·
COc1ccc(CSc2nnnn2Cc2ccccc2)cc1OC
→ 1% | -5 | 2% | -5% | 10% | -6 | ? | -0.3% | 0 | -13
Cc1c(C)n(CC(O)CN2CCOCC2)c2ccccc12 (stereo not given)
→ 1% | 10 | 0% | 7% | 2% | 3 | 0% | -0.1% | -2 | 2
O=C1N(Cc2cccc(Cl)c2)C[C@@H]2C[C@@H](c3cccn3-c3ccccn3)N3CCC[C@@]123
→ 0% | 7 | 0% | 0% | 0% | -25 | 11% | -0.2% | -2 | 26
CC1CCN(C2(O)C(=O)Nc3ccc(Br)cc32)CC1 (stereo not given)
→ 0% | -9 | 2% | -1% | -4% | -26 | -2% | -0.2% | -8 | 1
COc1cccc(NC(=O)CN(c2ccc3c(c2)OCO3)S(C)(=O)=O)c1
→ 9% | 26 | 5% | -2% | 3% | 2 | 0% | -1.5% | 1 | 2
CCCc1[nH]nc2c1C(c1cccnc1)C(C#N)=C(N)O2 (stereo not given)
→ -1% | 5 | 3% | -1% | 20% | 2 | -2% | 0.1% | 3 | -18
N#Cc1c(/N=C/c2cccnc2)sc2c1CCCC2
→ -1% | 0 | -2% | 5% | -6% | 4 | -1% | -0.1% | 1 | 2
COc1ccc(C(NC(C)=O)c2cc(Cl)c3cccnc3c2O)cc1 (stereo not given)
→ -2% | -16 | 6.3µM* | -3% | 6% | 1 | 0% | ? | -5 | -2
CCC(C)N(CC(=O)NCc1ccc(OC)cc1)C(=O)c1csnn1 (stereo not given)
→ 3% | -11 | 0% | 0% | 6% | 4 | 2% | -0.1% | -2 | 4
CCC(Sc1nc2c(c(=O)n1CC)SC(C)C2)C(=O)OC (stereo not given)
→ 2% | -9 | -28% | 1% | 0% | -1 | -6% | -0.3% | 4 | 5
O=S(=O)(NCc1ccco1)c1cccc(S(=O)(=O)N2CCOCC2)c1
→ -1% | -5 | 1% | 3% | -10% | 2 | -2% | 0.1% | 7 | -9
CC1CCCN(C(=O)CSc2ncccn2)C1 (stereo not given)
→ 0% | -28 | 0% | -2% | 2% | 2 | -8% | -0.9% | 2 | -9
CC(C)CNC(=S)N(CCN(C)C)Cc1cc2cc3c(cc2[nH]c1=O)OCCO3
→ 2% | -2 | -25% | 7% | -5% | -2 | ? | 0.3% | 2 | 10
C=CCSc1nc(=O)n2ccc(C)cc2n1
→ -1% | -14 | -2% | 0% | -6% | -9 | ? | 0.2% | -2 | -3
CN(C)C(CNC(=S)Nc1ccccc1)c1cccnc1 (stereo not given)
→ 4% | 8 | 2% | -2% | 1% | -26 | -6% | -0.5% | 1 | -1
Cc1ccc2c(c1)N(CCC(=O)NCC1CCCO1)C(=O)CO2 (stereo not given)
→ 0% | 0 | -2% | -1% | -2% | 38 | 1% | -0.4% | 0 | -4
COC(=O)CSc1nnc(-c2ccncc2)n1N
→ -2% | 5 | -4% | 6% | 6% | 2 | 0% | -0.2% | 5 | 6
O=C(Nc1c(C(=O)O)[nH]c2ccccc12)c1cccc(C(F)(F)F)c1
→ 9% | -19 | 2% | -4% | -11% | 3 | ? | 0.7% | -8 | 0
Cc1cc(=O)c(C(=O)O)cn1-c1ccc(C(C)C)cc1
→ 0% | -17 | 1% | 1% | -8% | · | ? | 0.2% | 3 | -9
COc1nc(OCC#N)nc(N2CCCCC2)n1
→ 1% | -16 | -10% | 0% | -11% | 5 | -14% | -0.9% | 0 | 10
CC1C[N+](=C2C=C(N3CCOCC3)CC(C)(C)C2)CC(C)O1 (stereo not given)
→ 7% | ? | 0% | -1% | -13% | 24 | 6% | -0.7% | 2 | -1
Cc1cc(C)nc(SCC(=O)c2ccc(O)cc2O)n1
→ -5% | 7 | 8% | -1% | 6% | -6 | -18% | 0.0% | 12 | 14
Cc1nnc(SCc2cnc(-c3ccccc3)o2)[nH]c1=O
→ -1% | 0 | 4% | -1% | 2% | 11 | ? | -0.3% | 8 | -1
O=C(NCCCN1CCCC1=O)[C@H](CSCc1ccccc1)N1Cc2ccccc2C1=O
→ 0% | 5 | -8% | · | -13% | -20 | -3% | -0.2% | 1 | -6

4 compounds out of the list, arranged by SMILES length, largest number first.
The line under a structure holds: USP2a inh | Giardia kill | uPA surface inh | GALK inh | Eya2 inh | KCNH2 3.1 block | BCR signal inh | B2AR arrestin | Coupling enz | KCNH2 WT inh
CCCc1[nH]nc2c1C(c1cccnc1)C(C#N)=C(N)O2 (stereo not given)
→ -1% | 5 | 3% | -1% | 20% | 2 | -2% | 0.1% | 3 | -18
COc1ccc(CSc2nnnn2Cc2ccccc2)cc1OC
→ 1% | -5 | 2% | -5% | 10% | -6 | ? | -0.3% | 0 | -13
COC(=O)CSc1nnc(-c2ccncc2)n1N
→ -2% | 5 | -4% | 6% | 6% | 2 | 0% | -0.2% | 5 | 6
C=CCSc1nc(=O)n2ccc(C)cc2n1
→ -1% | -14 | -2% | 0% | -6% | -9 | ? | 0.2% | -2 | -3

Following part
SMILES | USP2a inh | Giardia kill | uPA surface inh | GALK inh | Eya2 inh | KCNH2 3.1 block | BCR signal inh | B2AR arrestin | Coupling enz | KCNH2 WT inh
COCCNC(=O)CS(=O)Cc1nc(-c2ccc(Cl)cc2)oc1C (stereo not given) | 4% | 9 | -7% | 1% | -8% | -2 | 0% | -0.6% | 4 | -1
COc1ccc(CCNC(=O)COC(=O)c2cc(OC)c(OC)cc2OC)cc1 | 1% | 6 | 5% | 14% | 0% | 19 | -3% | 0.1% | -1 | 2
CCOC(=O)C1CCCN(C(=O)c2ccccc2[N+](=O)[O-])C1 (stereo not given) | 4% | 3 | 5% | 0% | -21% | -3 | ? | -0.3% | 0 | -6
CN(C)S(=O)(=O)c1cccc(NC(=O)COC(=O)/C=C/c2ccc3c(c2)OCO3)c1 | -2% | -1 | -1% | -2% | 2% | 3 | 4% | 0.1% | 1 | 2
O=C(CNC(=O)c1nc[nH]c1C(=O)N1CCc2ccccc2C1)OCc1ccccc1 | 0% | -14 | -19% | · | -17% | -5 | 4% | 0.3% | 4 | 7
CN(Cc1ccccc1)C(=C(Cl)Cl)/C(=C1/NCCN1C)[N+](=O)[O-] | 2% | -3 | 0% | -8% | 5% | -1 | 0% | 0.1% | 0 | 4
COc1ccc(OCCCC(=O)Nc2cccc(SC)c2)cc1 | 3% | -14 | 4% | 0% | 7% | -12 | -8% | -0.1% | -1 | -2
CCN(CC(=O)Nc1ccccc1C(F)(F)F)C(=O)c1cc(S(=O)(=O)N(C)C)ccc1N1CCCC1 | -1% | 6 | -12% | -2% | -20% | 6 | -1% | -0.4% | 1 | -10
Cc1cc(C)c2c(n1)nn1c(NCCCN(C)C)cc(C)nc21 | -2% | 7 | 3% | -3% | 7% | 1 | 0% | 0.1% | -3 | -2
CCOc1ccc(N(CC(=O)Nc2cccc(C)c2C)S(=O)(=O)c2c(C)[nH]c(=O)[nH]c2=O)cc1 | 0% | -14 | 12% | 0% | -4% | 2 | 5% | -0.9% | 0 | -7
OC(CNC1CCCC1)COc1ccccc1Br (stereo not given) | 0% | -6 | -13% | 2% | 0% | -15 | -3% | 0.0% | 0 | 16
